# HNF4A DNA FP: change in binding of human HNF4A to DNA, primary screen, biochemical, fluorescence polarization, FITC-DNA; 1 h; AID 1224865, 2016; activity change, % at 10 µM; 360,000 tested, 0.3% active; Hepatocyte nuclear factor 4-alpha (Homo sapiens), P41235; in the data active = activity change above about 30%, passing the limit was not always enough;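 note: controls were the assay level and a saturating level of protein; the project sought stronger binding though the title names inhibitors; some compounds called inactive have numbers as strong as hits; positive values seem to mean higher polarization but the record does not say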
# Target sequence (P41235 whole entry, looked up): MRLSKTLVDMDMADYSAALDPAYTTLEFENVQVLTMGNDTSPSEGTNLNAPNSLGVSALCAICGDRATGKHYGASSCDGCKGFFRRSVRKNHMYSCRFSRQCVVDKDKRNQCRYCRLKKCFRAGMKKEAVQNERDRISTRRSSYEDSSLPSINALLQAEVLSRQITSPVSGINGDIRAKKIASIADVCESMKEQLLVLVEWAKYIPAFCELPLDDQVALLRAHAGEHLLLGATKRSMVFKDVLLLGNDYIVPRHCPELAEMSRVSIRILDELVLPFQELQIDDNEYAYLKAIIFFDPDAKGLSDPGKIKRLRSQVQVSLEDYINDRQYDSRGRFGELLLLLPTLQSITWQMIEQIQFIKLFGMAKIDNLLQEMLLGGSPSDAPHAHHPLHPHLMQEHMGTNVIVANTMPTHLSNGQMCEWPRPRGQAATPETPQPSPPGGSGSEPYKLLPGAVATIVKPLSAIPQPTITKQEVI
# E coli growth: E. coli growth inhibition, primary screen, OD600. Escherichia coli growth, 23 h; stronger effect = lower value. OD600 absorbance (test concentration not listed). 330,000 tested, 0.21% active;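 active = OD600 absorbance below the run mean of sample wells minus 3.6 SD, in any replicate, cut at about 0.56 in these data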;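 note: stock transfer was 300 nL into about 60 µL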
# AF4-AF9 inh: inhibitors of AF4 peptide binding to AF9, primary screen, biochemical, AlphaScreen, biotin-AF4 peptide, FLAG-AF9, single point. Protein AF-9 (Homo sapiens), P42568. inhibition, % at 10 µM. 350,000 tested, 0.47% active. AID 651704, 2012;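 active = every replicate reaching a set inhibition limit, whatever the replicate mean, cut at about 25% in these data; inconclusive = mean inhibition reaches that limit but some replicates miss it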;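 note: 0% = plate neutral control median and 100% = total signal loss; the record names both 10 and 1 µM as test concentration; the first replicate is given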
# UCH37 DUB inh: inhibitors of human UCH37 deubiquitinase, primary screen, biochemical, Ub-AMC cleavage, fluorescence. 330,000 tested, 0.33% active. Ubiquitin carboxyl-terminal hydrolase isozyme L5 (Homo sapiens), Q9Y5K5. purified proteasome/UCH37. inhibition, % (test concentration not listed). AID 588478, 2011;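 active = mean of two replicates above 20%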;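 note: 0% = compound-free wells with enzyme and 100% = wells lacking proteasome; stock transfer was 100 nL into about 20 µL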
# Target sequence (Q9Y5K5 whole entry, looked up): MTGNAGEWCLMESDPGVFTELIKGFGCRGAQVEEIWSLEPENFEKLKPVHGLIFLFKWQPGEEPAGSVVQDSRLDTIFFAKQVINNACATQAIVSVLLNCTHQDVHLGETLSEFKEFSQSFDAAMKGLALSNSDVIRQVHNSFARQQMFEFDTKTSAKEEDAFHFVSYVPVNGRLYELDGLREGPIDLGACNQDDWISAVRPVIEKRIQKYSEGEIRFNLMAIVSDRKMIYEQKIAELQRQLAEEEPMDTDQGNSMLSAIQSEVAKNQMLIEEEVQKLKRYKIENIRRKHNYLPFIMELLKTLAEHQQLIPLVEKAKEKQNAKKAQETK
#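 System: Proteasome-associated human UCH37 deubiquitinase; Input: 0.15 nM proteasome in added enzyme buffer; Also added: Ub-AMC substrate from 1 µM stock; Incubation: 30 min compound-proteasome preincubation then 25 min substrate reaction, room temperature; Detection: fluorescence, ex 355 nm, em 460 nm; Read-out: % inhibition of Ub-AMC cleavage fluorescence; Benchmarks: no-proteasome and no-compound wells.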
# FGF22 binding: binders of human FGF22 protein, primary screen, FGF22 synaptogenesis inhibitor project, biophysical, thermal shift, single point | AID 651658, 2012 | Fibroblast growth factor 22 (Homo sapiens), Q9HCT0 | recombinant FGF22 thermal shift, SYPRO orange fluorescence; percent of sucrose octasulfate shift, DMSO zero | 340,000 tested, 1.5% active | calls only at 9.99 µM;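 active = melting point raised past a set limit in the mean and every replicate; inconclusive = no clear call; three in four hits are not shown here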
# Target sequence (Q9HCT0 whole entry, looked up): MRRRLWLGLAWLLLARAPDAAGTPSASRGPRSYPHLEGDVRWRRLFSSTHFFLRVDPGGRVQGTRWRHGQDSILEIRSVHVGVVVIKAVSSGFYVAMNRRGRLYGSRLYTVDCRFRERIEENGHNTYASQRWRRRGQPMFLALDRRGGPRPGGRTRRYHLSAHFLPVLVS
# RanGTP-Imp inh: inhibitors of RanGTP-importin-beta interaction, primary screen, biochemical, FRET, CFP-Ran, YFP-importin-beta, homogeneous; cell-free CFP-Ran/YFP-importin-beta FRET ratio; AID 2216, 2009; 300,000 tested, 1.1% active; Ran GTPase (GTP-bound) - importin-beta complex; inhibition, % (no concentration beside the values);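 active = most replicates above 15%; inconclusive = exactly half above 15%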;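 note: 0% = DMSO wells and 100% = Ran loaded with GDP instead of GTP; wells of about 40 µL received 100 nL stock; the first replicate is given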
# Vif A3G: inhibitors of Vif binding to APOBEC3G peptide, primary screen, biochemical, TR-FRET, GST-Vif 1-94, biotin-A3G peptide, dose response retest (AID 1117319). TR-FRET GST-Vif / biotin-A3G peptide binding; higher % means a stronger effect; test concentration not given here; strong numbers were not always called active. 260,000 tested, 0.57% active. inhibition, %; hits with a dose series show IC50 in µM;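 active = above the screen mean plus three standard deviations and confirmed in dose response; inconclusive = results disagree or hit not tested in dose response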;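 note: Vif residues 1-94 fused to GST binding biotinylated APOBEC3G peptide 110-148; 0% = full assay without inhibitor and 100% = GST in place of GST-Vif; retest series ran down from 100 µM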
# Active calls of the source: *; i = inactive; ? = inconclusive; . = not tested or not shown; & = joins results of further samples.
SMILES,HNF4A DNA FP,E coli growth,AF4-AF9 inh,UCH37 DUB inh,FGF22 binding,RanGTP-Imp inh,Vif A3G
O=C(COC(=O)C1=COCCO1)Nc1ccc(F)c(F)c1,-2.3,0.67,1.2,-0.3,i,2.0,-7%
Cc1oc(-c2ccc(F)cc2)nc1CN(Cc1ccccn1)CC1CCCO1 (stereo unspecified),-10,0.69,2.2,4.5,.,1.1,.
O=C(Nc1ccccc1Cl)c1cc(C2CCCN(C(=O)c3cccc(O)c3)C2)on1 (stereo unspecified),3.7,.,2.6,.,i,.,.
c1csc(-c2cn3ccc4ccccc4c3n2)c1,6.5,0.68,-1.1,-49,i,-1.5,.
COc1cccc(NC(=O)N2CCC(C(=O)Nc3ccc(C)cc3C)CC2)c1,-2.9,0.68,.,2.7,.,-3.0,6%
Cc1ccc(C(=O)NC(=S)Nc2ccccc2C)cc1,-2.2,0.68,-21,-0.3,i,1.1,7%
CCC(CC)c1nnc(NC(=O)c2nn(C)c(=O)c3ccccc23)s1,-1.7,0.68,.,-27,.,2.7,.
COC(=O)[C@@]12C[C@@H](CC(=O)N3CCSCC3)C(=O)N(Cc3cccc4ccccc34)C1=CCC(C)(C)C2,-5.7,.,4.9,.,i,.,.
S=C(Cc1cccnc1)N1CCOCC1,-1.4,.,.,0.8,.,-0.6,.
S=c1[nH]c2cc(Cl)ccc2s1,1.7,0.55,2.4,4.8,i,3.4,3%
Cc1ccc(C(=O)OCC(=O)Nc2ccccc2)cc1S(=O)(=O)N1CCCCC1,-2.3,0.68,-0.4,1.1,i,.,.
Cc1ccc(OCC(=O)N2CCC3(CC2)CC(=O)c2ccccc2O3)cc1,1.8,0.7,-0.2,-14,.,1.6,3%
CCCN(Cc1nnc(-c2cccs2)o1)C(=O)CN1C(=O)NC2(CCC(C)CC2)C1=O (stereo unspecified),-2.0,.,-2.6,.,i,.,-3%
CCOc1ccc(NS(=O)(=O)c2ccc3[nH]cc(C(=O)N(CC)CC)c(=O)c3c2)cc1,-2.6,0.68,.,2.1,.,.,19%
COc1ccc(S(=O)(=O)N(CC(=O)NCc2cccnc2)c2ccc(F)cc2)cc1OC,.,0.7,.,1.8,.,1.3,2%
COC(=O)C1=C(C)Nc2nc3ccccc3n2C1c1cc(OC)c(OC)c(OC)c1 (stereo unspecified),0.4,0.68,-3.2,-23,i,2.5,19%
COc1cccc(NC(=O)C23CCC(C)(C(=O)O2)C3(C)C)c1 (stereo unspecified),-0.1,0.73,.,0.7,.,5.9,4%
CCOc1cc2c(C#N)c(N(CC)CC)nc(N)c2c(N)n1,29,0.66,.,-24,i,2.3,.
S=C(NCc1cccs1)Nc1ccc(Br)cc1Cl,2.3,0.63,-1.7,1.0,i,-0.4,.
COc1cccc(S(=O)(=O)NCc2ccc(C(=O)NCc3ccco3)cc2)c1,-0.1,0.67,.,2.8,.,0.3,3%

# Rewritten with values under each structure: 5 of the compounds above.
# Below each compound: HNF4A DNA FP | E coli growth | AF4-AF9 inh | UCH37 DUB inh | FGF22 binding | RanGTP-Imp inh | Vif A3G
CCC(CC)c1nnc(NC(=O)c2nn(C)c(=O)c3ccccc23)s1
  -1.7 | 0.68 | . | -27 | . | 2.7 | .
COC(=O)[C@@]12C[C@@H](CC(=O)N3CCSCC3)C(=O)N(Cc3cccc4ccccc34)C1=CCC(C)(C)C2
  -5.7 | . | 4.9 | . | i | . | .
S=C(Cc1cccnc1)N1CCOCC1
  -1.4 | . | . | 0.8 | . | -0.6 | .
S=c1[nH]c2cc(Cl)ccc2s1
  1.7 | 0.55 | 2.4 | 4.8 | i | 3.4 | 3%
Cc1ccc(C(=O)OCC(=O)Nc2ccccc2)cc1S(=O)(=O)N1CCCCC1
  -2.3 | 0.68 | -0.4 | 1.1 | i | . | .

# The results go on.
SMILES,HNF4A DNA FP,E coli growth,AF4-AF9 inh,UCH37 DUB inh,FGF22 binding,RanGTP-Imp inh,Vif A3G
CN(C(=O)COc1ccccc1)c1nnc(-c2cccnc2)s1,-1.3,0.74,.,2.8,.,0.6,-1%
O/N=C/c1cc2ccccc2n1Cc1ccccc1F,-0.7,.,-7.0,.,i,-1.4,.
O=C(COc1ccc(Cl)cc1)NCc1nnc(SCC(=O)N2CCCCC2)o1,3.0,0.68,.,-0.6,.,-3.0,0%
Cc1onc(-c2c(Cl)cccc2Cl)c1C(=O)N1CCN(c2ncccn2)CC1,-3.4,0.67,3.3,-3.2,i,6.3,.
Cc1cccc(N2CCN(C(=O)c3ccc(Cl)c(S(=O)(=O)N4CCc5ccccc5C4)c3)CC2)c1C,0.2,0.67,.,2.1,.,1.4,-2%
CN1CCN(S(=O)(=O)c2cccc(C(=O)NCc3ccc(Cl)cc3)c2)CC1,-0.3,0.73,1.1,4.9,i,3.9,.
COc1ccc2cc(C(=O)C3CCCN(C(=O)c4cccnc4)C3)ccc2c1 (stereo unspecified),-1.6,0.67,-8.4,i,i,-0.7,.
Nc1cccc(S(=O)(=O)Nc2ccc(Br)cc2)c1,3.7,0.67,-0.6,2.5,i,2.4,9%
Fc1ccc2nncc(SCc3ccccc3Cl)c2c1,1.0,0.69,4.5,8.3,i,.,0%
Cc1ccc(-n2c(SCC(=O)N3CCOCC3)nc(O)c(Cc3ccccc3)c2=O)cc1,-3.0,0.67,-1.7,1.8,i,-0.1,.
O=C(NCc1ccc2c(c1)CCO2)Nc1ccccc1,1.7,0.63,-6.0,2.8,i,-1.1,4%
Cc1ccc(-c2nc3cccnc3o2)cc1NC(=O)COc1ccc(C(C)(C)C)cc1,-0.4,0.75,.,-1.5,.,-4.8,12%
COc1cc2c(c(OC)c1OC)C(=O)C(=Cc1ccccc1)O2,3.9,0.69,10,5.9,i,.,4%
O=C(NC(Cc1ccccc1)C(=O)O)/C(=C\c1ccc([N+](=O)[O-])cc1)NC(=O)c1ccco1 (stereo unspecified),3.2,0.67,-2.2,8.6,i,0.1,.
O=C1c2cccc3cccc(c23)C(=O)N1c1nncs1,-0.2,0.75,.,-17,.,6.3,?
Cc1ccc(NC(=S)NC2CC3CCCC(C2)N3Cc2ccco2)cc1 (stereo unspecified),1.6,0.65,4.4,3.9,i,1.7,.
COc1ccccc1-c1cc(C(=O)Nc2cc(C)n(Cc3ccc(Cl)cc3)n2)no1,5.4,0.68,.,-2.9,.,8.3,0%
O=C(O/N=C1/CCCc2occc21)c1ccccc1,1.1,.,.,.,.,?,-3%
O=C(c1ccc(Cl)nc1)N1CCN(S(=O)(=O)c2ccc(Cl)cc2)CC1,4.6,0.68,-3.7,1.2,i,2.3,.
Cc1ccc(C(=O)NC(=S)NNC(=O)CC#N)cc1,1.0,0.71,-2.8,1.6,.,-0.4,-1%
COC(=O)C1=C(C)NC(=O)CC1c1ccccc1F (stereo unspecified),-2.3,0.65,1.9,0.5,i,1.5,-1%
CN(C)/C=C1\Oc2ccc3ccccc3c2C1=O,-1.1,.,-2.4,-65,i,0.1,-6%
COC(C(=O)NNC(=O)CCc1ccccc1)c1ccccc1 (stereo unspecified),3.1,0.67,0.5,0.1,i,-3.8,-3%
NC(=O)c1ccc(NC(=O)COC(=O)c2cc3ccccc3cc2O)cc1,6.6,0.72,-1.8,0.4,i,.,-7%
COc1ccc(CNc2cccc3[nH]c(C(F)(F)F)nc23)cc1OC,4.9,.,3.5,.,i,1.3,.
CCCN1CCN(C(=O)c2cc3c(s2)-c2ccccc2OC3)CC1,3.7,0.72,-0.8,-430,i,-5.9,-10%
CCN1CCN(c2c(Cl)cccc2NC(=O)c2ccc3nsnc3c2)CC1,3.3,0.66,.,-0.4,i,2.4,0%
O=CN1CCN(c2ncnc3c2nnn3Cc2c(F)cccc2Cl)CC1,0.0,0.73,1.2,0.3,i,?,17%
Cc1cccc(NC(=O)COC(=O)c2cccc3c2C(=O)c2ccccc2C3=O)c1C,1.6,0.71,.,0.1,.,-4.3,-3%
Cc1ccsc1/C=N/NC(=O)CNC(=O)c1ccco1,1.2,.,-0.3,.,i,.,12%
CCNC(=S)N1CCc2cc(OC)c(OC)cc2C1COc1ccc(F)cc1 (stereo unspecified),-6.1,0.7,1.7,3.4,i,3.3,29%
CC(=O)N1CCc2cc(S(=O)(=O)NC(C(=O)Nc3nc(C)cs3)C(C)C)ccc21 (stereo unspecified),7.7,0.72,.,7.0,.,-0.2,18%
Clc1cc(Cl)cc(C2=NC(Cc3ccccc3)CO2)c1 (stereo unspecified),3.4,0.67,2.2,-2.1,i,2.5,.
CC(C)NC(=O)Cn1cnc2c(cnn2-c2ccc(F)cc2)c1=O,0.3,0.7,0.3,4.2,i,-1.3,.
COc1ccc(NC(=O)CN(C)C(=O)c2ccc(N3CCCCCC3)c([N+](=O)[O-])c2)cc1,4.0,0.62,15,-1.5,i,4.6,6%
Cc1c(NC(=O)Cc2cccs2)cccc1[N+](=O)[O-],-3.5,0.69,-0.4,4.0,i,0.4,.
CC(C)c1ccc(NC(=S)N2CCN(Cc3ccccc3)CC2)cc1,0.2,0.67,-0.7,2.4,i,6.6,1%
Cc1ncc(CN=Cc2ccc(Cl)cc2)c(N)n1,3.2,0.66,0.2,5.8,i,1.0,8%
CCCc1cc(=S)n2c([nH]c3ccccc32)c1C#N,-0.3,0.66,3.6,-35,i,2.2,?
OC(CSc1ccccc1)CN1CCN(c2cccc(Cl)c2)CC1 (stereo unspecified),0.0,0.66,1.4,6.1,i,.,-1%
N=C1/C(=C/c2ccc(Br)o2)C(=O)N=C2SC(CC(=O)N3CCCC3)=NN12,-10.0,0.72,-5.0,17,i,4.7,28µM*
Cc1ccc(-n2nnnc2SCC(=O)c2c(N)n(CC(C)C)c(=O)n(C)c2=O)cc1,2.0,0.76,.,2.6,.,4.2,30%
Cc1cc2oc(C(=O)Nc3c(C)n(C)n(-c4ccccc4)c3=O)c(C)c2cc1C,2.0,0.76,.,1.5,.,-0.8,4%&-5%
COCCN(C(=O)Cc1ccc(S(=O)(=O)N2CCOCC2)s1)c1c(N)n(CC(C)C)c(=O)[nH]c1=O,1.1,0.68,3.5,-1.6,i,.,.
O=C(C[n+]1cccc(CNC(=O)c2ccc(OC(F)F)cc2)c1)Nc1cccc(C(F)(F)F)c1,1.0,0.57,.,5.9,.,2.0,4%
COc1cc(C(=O)Nc2cc(-c3ccccc3)[nH]n2)cc(OC)c1OC,1.1,0.7,.,3.3,.,?,-3%
COc1ccc(-c2c(-c3ccccc3OC)sc3ccccc23)cc1C=O,3.0,0.68,0.0,3.9,i,.,.
Cn1c(=NC(=O)c2ccc(S(=O)(=O)N3CCCc4ccccc43)cc2)sc2cc(S(C)(=O)=O)ccc21,5.3,0.71,.,-2.5,.,-2.2,?
CCNC(=S)NNC(=O)c1cccn(Cc2ccc(Cl)cc2Cl)c1=O,-0.4,0.68,.,5.5,.,0.9,23%
CCOC(=O)c1cc(-c2cccc([N+](=O)[O-])c2)nc2[nH]c(=O)[nH]c(=O)c12,2.7,0.72,-7.4,4.7,i,2.0,-2%
COc1cc(OC)cc(C(=O)NCCCCCCNC(=O)c2cc(OC)cc(OC)c2)c1,-11,0.7,-4.4,2.3,i,.,-30%
Cc1nc(Oc2ccc(S(=O)(=O)N3CCOCC3)cc2Cl)c2c3c(sc2n1)CCCC3,-0.8,0.65,.,0.6,.,?,-4%

# Some of the compounds tested (hit frequency here may not be typical).
